# Screening data as filed in PubChem BioAssay.
# Hsc70 = small molecules displacing fluorescent ligand from Hsc70 – biochemical, fluorescence polarization, primary screen (AID 568). 83,000 tested, under 10 active. displacement, % at 20 µM, or IC50 in µM where a hit was titrated. Hsc70 fluorescence polarization, probe displacement; higher % means a stronger effect; strong numbers were not always called active;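 active = displacement above 50% without optical interference and an IC50 on retest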;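 also: ATPase domain with a fluorescein-tagged ATP probe; 0% = vehicle and 100% = excess ADP; read after one hour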
# WNV NS2B-NS3 inh = WNV NS2B-NS3 proteinase inhibition. P06935. WNV NS2B-NS3 protease, fluorogenic substrate Ex360/Em465; hits give low values. hit rate 0.18% among 65,000. z-score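 (tested at a level between 10 and 100 µM)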;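 active = z-score at -3 or under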;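 also: score is relative to mean and spread of the compound wells of a plate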
# Target sequence (P06935 1371-1501 limits assumed): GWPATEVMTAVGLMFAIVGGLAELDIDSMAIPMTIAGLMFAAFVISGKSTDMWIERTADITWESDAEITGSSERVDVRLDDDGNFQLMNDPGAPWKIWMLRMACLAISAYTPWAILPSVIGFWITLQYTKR
# Target sequence (P06935 1502-1679 limits assumed): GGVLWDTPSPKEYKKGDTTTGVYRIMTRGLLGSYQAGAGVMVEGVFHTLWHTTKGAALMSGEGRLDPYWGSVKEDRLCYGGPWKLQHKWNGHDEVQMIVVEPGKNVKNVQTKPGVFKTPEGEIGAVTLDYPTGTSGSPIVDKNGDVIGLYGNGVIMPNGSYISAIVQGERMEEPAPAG
# MT1-MMP reporter = inhibitors of MT1-MMP promoter transcription, cell-based, luciferase reporter, luminescence (AID 618) | MT1-MMP promoter luciferase reporter cells, luminescence | calls from a first round at 10 µM; hits with a dose series show EC50 in µM | hit rate 0.62% among 87,000;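 active = over half of the reporter light lost at 10 µM or EC50 under 50 µM; inactive = the rest and hits that failed the dose series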;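 also: actives suppress MT1-MMP promoter-driven transcription so potencies describe inhibitors; HT1080 fibrosarcoma cells; overnight exposure; toxic or luciferase-blocking compounds were not removed from the actives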
# Numbers without * were called inactive; i = inactive; nt = not tested or not shown. Some of the compounds tested (hit frequency here may not be typical).
no.	structure	WNV NS2B-NS3 inh	MT1-MMP reporter	Hsc70
1	CCOc1ncccc1C(=O)OCC(=O)c1cc(C)n(Cc2ccco2)c1C	0.19	i	0.4%
2	CCc1nnc(NC(=O)CSc2ncnc3c2oc2ccccc23)s1	-1.1	i	4.1%
3	COc1ccc(CNC(=O)c2ccc(NC(=O)CC3SC(N4CCCCC4)=NC3=O)cc2)cc1 (stereo not given)	nt	i	3.6%
4	COc1cc(S(=O)(=O)NC(C)C)ccc1Cl	nt	i	-1.7%
5	Cc1ccnc(NC(=O)C2CCC(CNc3c(N4CCCC4)c(=O)c3=O)CC2)c1 (stereo not given)	1.3	i	-0.8%
6	CCOc1ccccc1N(CC(=O)Nc1cccnc1)S(C)(=O)=O	nt	i	1.2%
7	CCCCN(c1ccccc1)c1ncnc2nc[nH]c12	0.04	i	1.0%
8	O=C(Nc1ccc2c(c1)OCCO2)c1ccc(Br)o1	-0.34	i	-0.1%
9	CC1C(c2ccccc2)N(C)C(c2ccccc2)CC1(O)c1ccccc1 (stereo not given)	nt	i	3.2%
10	CC1(C)CC(=O)c2cnc(NC(=O)C3CCCC3)nc2C1	-1.6	i	3.2%
11	Cc1csc(CCc2nc(C)cs2)n1	0.56	i	2.1%
12	CCOc1ccc2nc(NC(=O)CSc3nc4cccnc4n3C)sc2c1	0.48	i	3.9%
13	COc1ccc(S(=O)(=O)NCC(=O)N(CC(=O)NCC2CCCO2)c2cc(C)ccc2C)cc1 (stereo not given)	0.55	i	5.2%
14	COc1ccc(N2CC(C)Cn3c2nc2c3c(=O)n(Cc3ccc(F)cc3)c(=O)n2C)c(OC)c1 (stereo not given)	-0.85	i	3.2%
15	COc1cccc(CNCCSc2nnnn2C)c1	-0.95	i	5.0%
16	CC(=O)Nc1ccc(NC(=O)c2ccco2)cc1	1.7	i	-0.9%
17	COCCNC(=O)CCn1c(=O)oc2ccccc21	-1	i	-7.0%
18	Cc1ccc(-c2nn3c(=O)c(C)nnc3s2)cc1	0.51	i	-7.7%
19	Cn1c(SCC(=O)Nc2cccc(F)c2)nnc1-c1cccnc1	-0.59	i	3.9%
20	O=C(c1ccc2c(=O)n(-c3ccccc3)c(=O)[nH]c2c1)N1CCCCC1	0.63	i	8.0%
21	CCC(=O)Nc1cccc(NC(=O)c2cccnc2)c1	0.71	i	2.2%
22	Cn1c(CNC(=O)Nc2cccc(Cl)c2)nnc1SCc1ccccc1	0.67	i	2.9%
23	CCc1nnc(NC(=O)CN2CCN(C3CCCCC3)CC2)s1	1.6	i	-2.3%
24	CCCCc1nc(NCC2CCCO2)c(C#N)c2c1COC(C)(C)C2 (stereo not given)	-0.6	i	0.8%
25	COc1cccc(C(=O)Nc2c(C(N)=O)oc3ccccc23)c1	-0.74	i	2.4%
26	Cc1ccc(-c2noc(CCC(=O)Nc3ccc4c(c3)OCO4)n2)cc1	-1.1	i	3.6%
27	CCOc1cc(-c2ccc(N)c(OCC)c2)ccc1N	-0.13	i	95%
28	O=C(CN1C(=O)c2ccccc2S1(=O)=O)Nc1ccc(S(=O)(=O)N2CCCCC2)cc1	-1.2	i	4.1%
29	Cc1cc(N2CCN(C(=O)c3ccco3)CC2)n2nc(C)nc2n1	1.3	i	1.2%
30	CC(N)(Cc1ccc(O)cc1)C(=O)O (stereo not given)	nt	i	-4.8%
31	O=C(CSc1nc2c(cnn2-c2ccccc2)c(=O)[nH]1)c1ccc(Cl)cc1	-0.24	i	8.4%
32	O=C(Cn1nnc(-c2cccs2)n1)OC1CCCCC1	-0.69	i	1.2%
33	O=C1CC(Cc2ccccc2)C(=O)N1CCc1ccc2c(c1)OCO2 (stereo not given)	-0.37	i	2.7%
34	Cc1cc(NC(=O)CSc2nc3c(c(=O)n2-c2ccc(Cl)cc2)SCC3)no1	nt	i	-5.7%
35	Cc1ccc(NCc2nnc(SCC(=O)NCCc3ccccc3)n2C)cc1	-0.59	i	0.6%
36	N=c1ccn(Cc2ccccc2Cl)cc1	nt	i	-2.3%
37	O=C(CCN1CCN(CCO)CC1)Nc1ccc(F)c(F)c1	-0.57	i	2.6%
38	C/C(N)=C(/C#N)C(=O)COC(=O)CC1CCCC1	-0.05	i	-7.8%
39	O=C(NC1CCCC1)C(c1ccc(Cl)cc1)N1CCOCC1 (stereo not given)	-0.3	i	-2.7%
40	O=C(O)COc1ccc(Oc2ccccc2)cc1	0.45	i	-2.9%
41	CCOC(=O)N1CCC(NC(=O)c2ccc3c(c2)ncn3C2CCCC2)CC1	-1.8	i	-10%
42	COc1ccc(Br)cc1C(=O)Nc1cc(C)cc(C)c1	nt	i	5.1%
43	Cc1ccccc1/C=C1\CCCc2ccccc2C1=O	nt	i	0.7%
44	CCS(=O)(=O)NCc1cn2ccsc2n1	-1.4	i	-4.6%
45	COc1cc(C2=NOC(C(=O)Nc3ccc(C)cc3)C2)cc(OC)c1OC (stereo not given)	-0.85	i	-5.8%
46	C=C(C)Cn1c(SCC(=O)O)nnc1-c1ccccc1	nt	i	6.2%
47	Cc1nn(-c2ccccc2)c2sc(C(=O)OCc3nnc(-c4ccccc4)o3)cc12	-1.5	i	0.3%
48	Cc1cccc(N2CC(C(=O)Nc3ccc4c(c3)OCO4)CC2=O)c1C (stereo not given)	0.38	i	-6.8%
49	CCOC(=O)CN(C(=O)Cn1nnc2ccccc21)C(C(=O)NCCOC)c1ccccc1 (stereo not given)	-0.74	i	-7.0%
50	O=C(Cn1nc(-c2ccccc2)ccc1=O)N1CCOCC1	-0.36	i	1.5%

# Record cards, from the list above. Values in the order: WNV NS2B-NS3 inh | MT1-MMP reporter | Hsc70
# Results for `Cc1cc(N2CCN(C(=O)c3ccco3)CC2)n2nc(C)nc2n1` → 1.3 | i | 1.2%
# Results for `CCOc1cc(-c2ccc(N)c(OCC)c2)ccc1N` → -0.13 | i | 95%
# Results for `CCS(=O)(=O)NCc1cn2ccsc2n1` → -1.4 | i | -4.6%
# Results for `Cc1cccc(N2CC(C(=O)Nc3ccc4c(c3)OCO4)CC2=O)c1C` (stereo not given) → 0.38 | i | -6.8%
# Results for `CCOC(=O)CN(C(=O)Cn1nnc2ccccc21)C(C(=O)NCCOC)c1ccccc1` (stereo not given) → -0.74 | i | -7.0%

# Going on with the list:
no.	structure	WNV NS2B-NS3 inh	MT1-MMP reporter	Hsc70
51	COc1ccccc1C1=Nn2c(nnc2C2CCCCC2)SC1	0.5	i	9.5%
52	COCCn1nnnc1C(C(C)C)N1CCC(Cc2ccccc2)CC1 (stereo not given)	-0.31	i	-2.1%
53	CC(C)CCNC(=O)Cc1c(C(=O)O)[nH]c2ccc(Cl)cc12	-0.63	i	6.5%
54	O=C(NC12CC3CC(CC(C3)C1)C2)c1cc2nc(-c3ccco3)cc(C(F)(F)F)n2n1	0.0027	i	-6.6%
55	Cc1cc(NS(=O)(=O)c2ccc(NC(=O)Nc3ccccc3)cc2)no1	-0.87	i	6.7%
56	COc1cc2c(cc1OC)-c1cc(N3CCCCCC3)nc(=O)n1CC2	0.71	i	-0.1%
57	O=C(O)c1ccc(CSc2n[nH]c(-c3ccco3)n2)cc1	-0.87	i	-1.9%
58	CCSc1nc2sc3c(c2c2nnc(SCC(=O)NCc4ccco4)n12)CCCC3	0.25	i	-1.1%
59	Clc1ccc(CSc2nnc(-c3ccncc3)o2)c(Cl)c1	-0.87	i	-0.1%
60	COc1ccc(-c2cc(C(F)(F)F)n3nc(C(=O)N4CCCC4)cc3n2)cc1	-0.39	i	-2.3%
61	COc1cccc(Nc2ncnc3ccccc23)c1	nt	i	6.3%
62	O=C(c1cc(-c2ccc3c(c2)OCO3)on1)N1CCN(c2ccccc2)CC1	0.38	i	3.6%
63	CCC1CCCCN1C(=O)c1nn2cccnc2c1Cl (stereo not given)	-0.64	i	2.3%
64	Cc1cc(=O)[nH]c2c1c(C)nn2C1CCOC(C)(C)C1 (stereo not given)	nt	i	-0.7%
65	Cc1c(Cl)c(C(=O)NC2CCCC2)nn1C	nt	i	5.9%
66	Nn1c(SCC(=O)NCCC2=CCCCC2)nnc1C1CCCCC1	0.58	i	3.8%
67	CCOc1ccc(-c2noc(-c3ccncc3)n2)cc1OCC	0.3	i	0.2%
68	COc1cc(C(c2nnnn2C(C)(C)C)N2CCN(C)CC2)cc(OC)c1OC (stereo not given)	1.6	i	-5.6%
69	Cc1sc2nc(SCC(=O)N3CCCCC3)[nH]c(=O)c2c1C	-0.74	i	0.2%
70	CC(C)C(=O)N1CCN(c2ccc(NC(=O)c3cccs3)cc2)CC1	nt	i	-3.6%
71	Cc1cccc(-n2ncc3c(N4CCCC4)ncnc32)c1	0.11	7.6µM*	0.8%
72	Cn1c(=O)n(CCN2CCOCC2)c(=O)c2c1nc1n2CCN1c1ccccc1	0.88	i	-0.1%
73	O=C(NC1CCCC1)c1ccc(S(=O)(=O)N2CCCC2)cc1	1.8	i	-1.3%
74	O=C(CSC1CCCCC1)N1CCN(c2ccccc2)CC1	1.2	i	-3.7%
75	O=C(C1CCC(Cn2c(=S)[nH]c3ccccc3c2=O)CC1)N1CCN(c2ccccc2)CC1 (stereo not given)	0.19	i	1.9%
76	COc1ccccc1N1CCN(S(=O)(=O)c2ccc3c4c(cccc24)C(=O)N3C)CC1	-0.87	i	4.4%
77	C=CCOc1c(CNn2nnnc2N)cccc1OC	nt	i	2.3%
78	CCCc1[nH]nc2c1C(c1ccc(OC(=O)c3ccco3)cc1)C(C#N)=C(N)O2 (stereo not given)	1.9	i	-5.6%
79	COc1cc2c(cc1OC)C(C(=O)N1CCCC1)C(c1ccccc1F)N(C)C2=O (stereo not given)	0.09	i	-3.9%
80	COc1ccc(-n2nnc3c(=O)n(Cc4ccccc4C)cnc32)cc1	1.6	i	-6.4%
81	CCOc1ccc(OCC(=O)Nc2ccc(OC)cc2)cc1	nt	i	5.1%
82	COc1ccc(C2C(C(=O)NCc3ccccc3)=C(C)Nc3ncnn32)cc1OC (stereo not given)	0.11	i	-9.2%
83	Cc1ccccc1-n1c(=O)c2ccccc2n2cnnc12	nt	i	-1.7%
84	CCOc1ccc(C(=O)Nc2cc(=O)n(C)c(=O)n2C)cc1	-0.42	i	-5.2%
85	COC(=O)c1ccc(=O)n(-c2ccc(OC)cc2)c1	1.3	i	-3.6%
86	CCN(CC)CCNC(=O)c1cc2c(=O)n(C)c3ccccc3c2n1C	-0.67	i	1.0%
87	CCn1nnc(NC(=O)c2sc3ccccc3c2Cl)n1	nt	i	-0.6%
88	CCN1CCN(C(CNS(=O)(=O)c2ccc(OC)cc2)c2cccnc2)CC1 (stereo not given)	0.39	i	-1.4%
89	COc1ccc(-c2c3c(=O)n(C)c(=O)n(C)c3cn2NC(C)=O)cc1	-0.85	i	-0.1%
90	COc1ccc(OCC(=O)N(C)Cc2ccccc2)cc1	0.15	i	4.3%
91	CCc1cccc(NC(=O)C2CCCN(S(=O)(=O)c3c(C)[nH]c(=O)[nH]c3=O)C2)c1 (stereo not given)	-0.98	i	-3.8%
92	CC1(C)Cc2cccc(OCC(=O)Nc3cc(C(F)(F)F)ccc3N3CCOCC3)c2O1	nt	i	3.4%
93	O=C(Nc1cccc(Cl)c1)c1ccc2c(=O)n3c(nc2c1)CCCCC3	-0.94	i	7.3%
94	NC(=O)c1c(C(F)(F)F)cc(-c2ccccc2)nc1NCCO	-0.8	i	-3.4%
95	c1cnc2ccc(C(c3nnnn3C3CCCC3)N3CCN(c4nc5ccccc5s4)CC3)cc2c1 (stereo not given)	-0.44	i	-3.0%
96	OC12CCCCC1C(c1ccc3c(c1)OCO3)N(Cc1cccc(F)c1)CC2 (stereo not given)	-0.52	i	-2.8%
97	Cc1ccc(S(=O)(=O)CCSc2nc(C)cc(C(F)(F)F)c2C#N)cc1	nt	i	-26%
98	COCCN1Cc2cccc(C(=O)NCc3cccnc3)c2C1=O	-1.3	i	-2.0%
99	COc1ccccc1-c1cc2nc(C)c(CCC(=O)NCc3ccco3)c(C)n2n1	-0.0069	i	3.2%
100	O=S1(=O)N=C(N2CCN(Cc3ccc4c(c3)OCO4)CC2)c2ccccc21	-0.31	i	-1.0%

# New compounds follow
no.	structure	WNV NS2B-NS3 inh	MT1-MMP reporter	Hsc70
101	CC(=O)c1cnc2c(-c3ccc(Cl)cc3)cnn2c1C	nt	i	1.3%
102	Cn1c(=O)cc(OCC(=O)N2CCC(N3CCCCC3)CC2)c2ccccc21	0.15	i	6.7%
103	FC(F)(F)c1cccc(OCCOCCn2cncn2)c1	-1.5	i	-2.3%
104	CCOC(=O)C1=C(C)NC(=O)NC1c1cc2c(cc1Br)OCO2 (stereo not given)	-0.5	i	-1.1%
105	CC1CCN(S(=O)(=O)c2ccc(S(=O)(=O)N3CCN4CCCC4C3)cc2)CC1 (stereo not given)	-0.78	i	1.8%
106	Cc1ccc(-c2nc(CN(C)C)cc(CN(C)C)c2O)cc1	0.3	i	-5.9%
107	C(=N\c1nc2ccccc2n1Cc1ccccc1)/c1cccs1	-1.2	i	-1.9%
108	O=C(c1ccc(CS(=O)(=O)c2c(Cl)cccc2Cl)o1)N1CCCC1	-0.78	i	2.8%
109	O=C1OCCC1Sc1nnnn1-c1ccccc1 (stereo not given)	nt	i	-2.1%
110	O=C1C2C(c3ccccc3)C=CC(c3ccccc3)C2C(=O)N1CCO (stereo not given)	-0.49	i	-4.3%
111	Cc1ccc2nc(SCCC(=O)O)cc(C)c2c1	nt	i	4.4%
112	CCOc1ccccc1C1CC(c2ccc(Cl)cc2)Nc2nc(N)nn21 (stereo not given)	0.59	i	-2.2%
